# Bioassay records: PubChem, National Center for Advancing Translational Sciences (NCATS)
# Lassa entry inh: blocks Lassa virus binding to or entry into cells; Lassa virus pseudotype entry inhibition, cell reporter; control for the full effect not named in the record; hit rate 1.2% among 300,000; Potency, µM (titrated, usually from 37.9 µM), without a hit: at the highest dose activity change, negative = inhibition, hits mostly inhibitors; active means well fitted inhibition curve with a large enough effect; inconclusive means small, poorly fitted or top-dose-only effect, or effect the other way; inactive means flat fitted curve, though single readings scatter; tested in HEK293 cells; note: % is set by controls: 0 for no effect and ±100 for the full control effect; nearly all actives have a fitted effect of over 50% in size; luciferase read-out
# SARS PLpro yeast: blocks SARS-CoV papain-like protease in a yeast assay; S. cerevisiae expressing SARS-CoV PLpro, growth rescue; control for the full effect not named in the record; Potency, µM (top dose mostly 32.9 µM), without a hit: at the highest dose activity, positive = growth rescue; hit rate 0.19% among 330,000; AID 485353; note: 0% is about no effect; nearly all actives have a fitted effect of over 55% in size; growth read by luminescence after 48 h
# Cruzain Triton: blocks cruzain activity in presence of Triton detergent; purified cruzain, Z-FR-AMC fluorescence, 0.01% Triton; Potency, µM, for inactives: max response, negative = inhibition, usual class: inhibitors; hit rate 0.43% among 200,000; AID 1478; active = well fitted curve in the direction sought with a large enough effect; inconclusive = small, poorly fitted or top-dose-only effect, or another doubt; inactive = no such curve, though single readings can be large; an effect the other way counts as inactive or inconclusive;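 note: plate controls were neutral wells for no effect and buffer without enzyme for full effect; nearly all actives have a fitted effect of over 40% in size; top concentration of the series not given in the record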
# Target sequence (P25779 123-467 limits assumed): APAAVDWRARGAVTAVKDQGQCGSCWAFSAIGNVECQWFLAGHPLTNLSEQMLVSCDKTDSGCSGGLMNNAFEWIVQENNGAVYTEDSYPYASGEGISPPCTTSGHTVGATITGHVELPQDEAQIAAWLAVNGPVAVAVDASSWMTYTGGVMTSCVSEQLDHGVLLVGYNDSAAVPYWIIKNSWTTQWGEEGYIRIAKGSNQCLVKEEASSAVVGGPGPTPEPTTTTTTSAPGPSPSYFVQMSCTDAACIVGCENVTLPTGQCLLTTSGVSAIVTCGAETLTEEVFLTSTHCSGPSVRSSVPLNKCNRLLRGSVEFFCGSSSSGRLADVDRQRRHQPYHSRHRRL
#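 Enzyme 1.5 nM, Z-FR-AMC 2 uM, NaOAc 100 mM pH 5.5, DTT 5 mM, Triton X-100 0.01%; 15 min RT compound preincubation; kinetic ex360/em450, 60 s delta.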
# Marburg entry inh: blocks Marburg virus binding to or entry into cells; Marburg virus pseudotyped entry inhibition, cell reporter; control for the full effect not named in the record; about a third of the inactives were read at about 46 µM; Potency, µM (titrated, usually from 37.8 µM), for inactives: at the top dose activity change, negative = inhibition, hits mostly inhibitors; hit rate 1.8% among 300,000; AID 540276; active = well fitted inhibition curve with a large enough effect; inconclusive = small, poorly fitted or top-dose-only effect, or effect the other way; inactive = flat fitted curve, though single readings scatter; tested in HEK293 cells; about a fifth of its hits are not listed in these tables; note: % is set by controls: 0 for no effect and ±100 for the full control effect; luciferase read-out
# RE007 growth inh: less growth of the S. pombe RE007 Vpr strain | Potency, µM (titrated, usually from 92.2 µM), for the others: top-dose activity change, negative = less growth | hit rate 0.21% among 360,000 | S. pombe RE007 Vpr strain, BacTiter-Glo ATP luminescence, 24 h; control for the full effect not named in the record; active = well fitted falling curve with a large enough effect; inconclusive = small, poorly fitted or top-dose-only effect; inactive = no such curve, though single readings can be large or run the other way;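 note: % is set by controls: 0 for no effect and ±100 for the full control effect; nearly all actives have a fitted effect of over 50% in size; the assay follows cell death caused by Vpr and the record does not say whether a fall means rescue or toxicity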
#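 Fission yeast RE007 carrying one integrated HIV-1 vpr copy, seeded at OD 0.01 in PMG+AL medium with 23 nL pinned compound. Grown 24 h at 30 degrees; viability read by BacTiter-Glo luminescence after 5 min.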
# Cruzain inh noDet: cruzain (T. cruzi) inhibition without detergent; hit rate 2.3% among 200,000; Potency, µM, inactives show max response, negative = inhibition, most hits filed as inhibitors; P25779; AID 1476; purified cruzain, Z-FR-AMC fluorescence, no detergent; active = well fitted curve in the direction sought with a large enough effect; inconclusive = small, poorly fitted or top-dose-only effect, or another doubt; inactive = no such curve, though single readings can be large; an effect the other way counts as inactive or inconclusive;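 note: plate controls were enzyme without inhibitor for no effect and buffer without enzyme for full effect; nearly all actives have a fitted effect of over 40% in size; top concentration of the series not given in the record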
#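 Detergent-free condition (0.00005% Triton X-100) in acetate buffer pH 5.5 with DTT. 1.5 nM enzyme and compound were pre-mixed 15 min, then 2 uM Z-FR-AMC substrate added; reaction progress from fluorescence change between first and third reads (60 s).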
# NS1 function inh: inhibitors of influenza NS1 protein function; AID 2326; Potency, µM (highest dose often 46.1 µM), without a hit: at the top dose activity, positive = more growth; hit rate 0.4% among 270,000; S. cerevisiae slowed by influenza A NS1, growth recovery by OD600; note: actives are rising curves; nearly all actives have a fitted effect of over 50% in size
#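 In this qHTS, NS1 from influenza A is expressed in budding yeast, where it slows growth. Cells are switched from glucose to 2% galactose medium (pH 6.0, -URA), treated with compound, and growth recovery is read at OD600.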
# StopGo reporter: FMDV 2A StopGo reporter, luciferase signal. Potency, µM (titrated, usually from 57.9 µM), for the others: at the top dose signal change, negative = less light. human cells with a luciferase reporter of 2A StopGo recoding; control for the full effect not named in the record. hit rate 1.2% among 410,000; active = well fitted falling curve with a large enough effect; inconclusive = small, poorly fitted or top-dose-only effect; inactive = no such curve, though single readings can be large or run the other way; tested in HEK293T cells; note: % is set by controls: 0 for no effect and ±100 for the full control effect; nearly all actives have a fitted effect of over 45% in size; luciferase light after 4 h
# The depositor's hits bear a star; ? = inconclusive; · = no result given; & = joins results of further samples; [ ] = dose if it differs, or a comment. Unless noted, calls come from the whole dose curve; as a rule, active means well fitted rising curve with a large enough effect; inconclusive means small, poorly fitted or top-dose-only effect; inactive means no such curve, though single readings can be large or run the other way. Potency is the fitted concentration of half-maximal effect. Hits appear at their usual frequency; 4.5% or so of the library scored in one or more.
SMILES,Lassa entry inh,SARS PLpro yeast,Cruzain Triton,Marburg entry inh,RE007 growth inh,Cruzain inh noDet,NS1 function inh,StopGo reporter
OCCNCc1cccc(Br)c1,·,-1.0%,·,-29.1%[46.1 µM],-14.9%,·,0.4%,10.9%
c1ccc(-c2ccccc2OCCOCCN2CCOCC2)cc1,·,-0.3%,·,·,-11.3%,·,14.8%,4.7%
CO/N=C(\c1ccccc1)c1cccnc1,·,-6.3%,·,·,-6.7%,·,5.8%,10.6%
Cc1cc(C)cc(C(=O)Nc2nnc(SCC(=O)N3CCCc4ccccc43)s2)c1,5.6%,4.7%,-5.1%,17.9%,0.2%,?,4.2%,-13.4%
CCOC(=O)c1cc(S(=O)(=O)N2CCN(c3ccc(F)cc3)CC2)[nH]n1,-2.8%[46.1 µM],·,-2.2%,·,·,6.7%,·,11.8%
CSc1ccccc1NC(=O)Cc1ccccc1,29.5%[46.1 µM],0.2%,·,-2.0%[46.1 µM],-2.3%,·,-6.4%,5.0%
CCc1ccc(NC(=O)CCC(=O)Nc2nnc(C(C)C)s2)cc1,·,2.4%,·,·,0.7%,·,11.0%,7.1%
Cc1ccc(Nc2nc(N)c([N+](=O)[O-])c(NCc3ccco3)n2)cc1C,-13.3%,-22.3%,-9.4%,?,-11.5%,?,9.1%,?
Cc1ccccc1C(=O)NNC(=O)c1ccncc1,?,-2.2%,·,0.8%,-5.3%,·,-1.5%,4.5%
NNC(=O)COc1ccc(C2SCCS2)cc1,?,-8.8%,·,1.3%,14.8%,·,·,20.6%
CCCc1cc(=O)[nH]c(SCC(=O)Nc2ccccc2C#N)n1,-1.6%,-3.3%,-1.1%,-1.7%,-3.4%,1.6%,-0.6%,-2.7%
COc1cccc(/C=N/NC(=O)c2cccc(N3CCCC3=O)c2)c1,2.4%[46.1 µM],0.2%,·,?,8.4%,·,12.3%,28.1%
COc1ccccc1NC(=O)Nc1ccccc1SC,-7.1%,-1.0%,·,2.1%[46.1 µM],-4.0%,·,-2.7%,-1.7%
Cn1cnc(S(=O)(=O)N2CCC(C(=O)N3CCN(c4ccc(Cl)cc4)CC3)CC2)c1,-11.5%[46.1 µM],·,-0.5%,·,·,?,·,-7.5%
Cc1ccc(NC(=O)CSc2ccc(-c3ccco3)nn2)cc1,?,-1.7%,·,-17.3%[46.1 µM],12.7%,·,·,-26.5%
COc1ccc(CCNC(=O)c2nonc2N)cc1,4.4%,-1.8%,-0.9%,9.7%,13.9%,16.1%,-8.1%,60.5%[activator]
CCN(CC)CCNC(=O)c1ccc2nc(CCc3ccccc3)oc2c1,5.6%[46.1 µM],·,-1.6%,·,·,-3.3%,·,22.4%
COCCCn1c(SCC(=O)Nc2sc3c(c2C#N)CCCC3)nnc1-c1ccncc1,-8.7%,19.7%,-14.5%,-17.5%,-3.7%,18.6%,-4.5%,16.4%
COc1cc(C(=O)N2CCC(N3CCCCCC3)CC2)cc(OC)c1OC,15.9%,·,·,-4.7%[46.1 µM],-8.9%,·,·,-0.9%
CSc1ccc(CNC(=O)C2CCC(=O)N(Cc3cccc(F)c3)C2)cc1 (configuration not stated),-13.6%,-1.6%,·,-12.1%,0.0%,·,-10.3%,-9.7%
CS(=O)(=O)c1cccc(C(=O)NCc2ccc(F)cc2)c1,0.3%,3.0%,3.9%,-10.7%,25.6%,-0.3%,2.6%,-1.8%
CCN1CCN(c2oc(/C=C/c3cc(OC)c(OC)c(OC)c3)nc2C#N)CC1,17.1%[46.1 µM],·,-1.5%,-0.9%[46.1 µM],·,-4.1%,·,-11.4%
COC(=O)Nc1ccc(S(=O)(=O)NNC(=O)c2c(O)c3ccccc3n(C)c2=O)cc1,·,-2.8%,·,·,3.2%,·,-29.9%,-17.6%
COc1cc(-c2nc3ncccn3c2Nc2ccc(C)cc2C)ccc1O,-28.6%[46.1 µM],·,-12.4%,?,·,?,·,-13.2%
CSCC[C@H](NC(=O)c1ccc2c(c1)OCO2)c1nnc2ccccn12,14.7%[46.1 µM],1.3%,·,1.3%[46.1 µM],5.8%,·,-1.1%,-5.2%

# 3 compounds from above, ordered by length of the SMILES, rising:
SMILES,Lassa entry inh,SARS PLpro yeast,Cruzain Triton,Marburg entry inh,RE007 growth inh,Cruzain inh noDet,NS1 function inh,StopGo reporter
OCCNCc1cccc(Br)c1,·,-1.0%,·,-29.1%[46.1 µM],-14.9%,·,0.4%,10.9%
COc1ccccc1NC(=O)Nc1ccccc1SC,-7.1%,-1.0%,·,2.1%[46.1 µM],-4.0%,·,-2.7%,-1.7%
COc1ccc(CCNC(=O)c2nonc2N)cc1,4.4%,-1.8%,-0.9%,9.7%,13.9%,16.1%,-8.1%,60.5%[activator]

# Structural class, the compounds so far with an NH in an aromatic ring
SMILES,Lassa entry inh,SARS PLpro yeast,Cruzain Triton,Marburg entry inh,RE007 growth inh,Cruzain inh noDet,NS1 function inh,StopGo reporter
CCOC(=O)c1cc(S(=O)(=O)N2CCN(c3ccc(F)cc3)CC2)[nH]n1,-2.8%[46.1 µM],·,-2.2%,·,·,6.7%,·,11.8%
CCCc1cc(=O)[nH]c(SCC(=O)Nc2ccccc2C#N)n1,-1.6%,-3.3%,-1.1%,-1.7%,-3.4%,1.6%,-0.6%,-2.7%

# Remaining list, next part
SMILES,Lassa entry inh,SARS PLpro yeast,Cruzain Triton,Marburg entry inh,RE007 growth inh,Cruzain inh noDet,NS1 function inh,StopGo reporter
Cc1ccc(NS(=O)(=O)c2ccc(-c3coc(C)n3)cc2)c(C)c1,·,-2.7%,·,·,2.6%,·,4.8%,-16.6%
COc1ccc(Cc2nc3c4cnn(-c5ccccc5F)c4ncn3n2)cc1,?,·,-7.0%,23.1%[46.1 µM],·,-10.7%,·,-1.2%
CCCC(C)C(=O)Nc1nc(C)c(-c2csc(Nc3ccccc3OC)n2)s1 (configuration not stated),·,1.2%,4.8%,·,5.3%,?,10.9%,?
Cc1csc(NC(=O)C(C)Oc2ccc(Br)cc2)n1 (configuration not stated),0.6%,·,·,-3.4%,?,·,·,-5.3%
COc1ccc(C2=NN(C(=O)CSc3nc4ccccc4s3)C(c3ccc(F)cc3)C2)cc1 (configuration not stated),?,8.6%,-5.0%,?,-3.4%,-80.7%,1.8%,-5.6%
CN(Cc1ccccc1)S(=O)(=O)c1ccc2c(c1)n(C)c(=O)c(=O)n2C,·,-0.6%,·,·,4.4%,·,-0.4%,-6.5%
C/C(CC(=O)Nc1ccccc1C#N)=N\NC(=O)c1ccncc1,-20.6%,-5.6%,·,-2.8%[46.1 µM],-7.3%,·,1.6%,-3.6%
CC(OC(=O)CNC(=O)C1CCCCC1)C(=O)NCc1ccccc1 (configuration not stated),6.8%[46.1 µM],6.9%,·,1.8%[46.1 µM],-4.0%,·,·,12.0%
COc1ccc(CN(C2CCCC2)S(=O)(=O)c2ccc(-n3cnnn3)c(OC)c2)cc1OC,-17.1%,-3.0%,-2.4%,?,12.1%,?,-34.3%,·
CC1(C)CC(=O)/C(=C\c2cccc([N+](=O)[O-])c2)C(C)(C)N1,?,9.0%,-4.2%,?,-5.9%,-7.6%,-8.3%,?
O=C1Cc2cc(S(=O)(=O)N3CCN(c4ccccc4)CC3)ccc2N1,-10.9%[46.1 µM],1.3%,-2.9%,-7.2%[46.1 µM],-13.9%,-15.9%,?,-14.7%&-5.3%
Cc1cc(NC(=O)C(C)SCC(=O)OC(C)C(=O)Nc2ccc(F)cc2Cl)no1 (configuration not stated),-8.2%,-0.6%,·,27.8%,-19.5%,·,·,-14.8%
O=C(CCC(=O)N1CCOc2ccccc21)N1CCOCC1,·,-1.5%,·,·,9.2%,·,-10.0%,0.0%
CN1CCN(C(CNC(=O)C(=O)Nc2ccc(F)cc2)c2cccnc2)CC1 (configuration not stated),?,·,-14.5%,·,·,?,·,10.6%
CCOC(=O)C1CCN(C(=O)c2ccc(NC(=O)C3CCCO3)cc2)CC1 (configuration not stated),-8.3%,-13.5%,2.4%,14.3%,0.0%,-5.7%,0.3%,18.6%
CC1(C)CC(=O)C(C=NCCO)=C(O)C1,-2.0%,3.4%,-1.8%,?,-1.5%,0.8%,-5.7%,0.0%
CCOC(=O)NCc1ccc2[nH]c(C)cc2c1,·,-7.3%,·,·,19.3%,·,25.8%,?
O=C1CC(c2ccc(S(=O)(=O)N3CCCCC3)cc2)CN1 (configuration not stated),11.6%,0.0%,3.2%,-1.1%,-0.4%,-1.7%,?,4.2%
COc1ccc(OCC(=O)N2CCN(C(=O)c3cc(OC)c(OC)c(OC)c3)CC2)cc1,-15.3%[46.1 µM],·,-0.2%,·,·,5.2%,·,-13.7%
CN1C(=O)c2ccccc2N(C)C1c1ccc(F)cc1 (configuration not stated),-4.9%,-6.0%,·,-1.7%,6.0%,·,-7.5%,-7.9%
C=C(C)c1cccc(C(C)(C)NC(=O)Nc2nncs2)c1,-5.8%,0.6%,·,-0.2%,-2.4%,·,0.4%,-2.8%
CC(C)c1ccc2occ(CC(=O)Nc3cccc(C(F)(F)F)c3)c2c1,2.2%[46.1 µM],·,-12.0%,?,·,-4.0%,·,-11.6%
NCCc1ccc(S(=O)(=O)F)cc1,-1.0%,·,1.0%,?,-6.4%[18.4 µM],3.3%,4.6%,-17.2%

# Some entries already given with just StopGo reporter, Marburg entry inh and Lassa entry inh:
SMILES | StopGo reporter | Marburg entry inh | Lassa entry inh
COc1ccc(OCC(=O)N2CCN(C(=O)c3cc(OC)c(OC)c(OC)c3)CC2)cc1 | -13.7% | · | -15.3%[46.1 µM]
CN1C(=O)c2ccccc2N(C)C1c1ccc(F)cc1 (configuration not stated) | -7.9% | -1.7% | -4.9%
C=C(C)c1cccc(C(C)(C)NC(=O)Nc2nncs2)c1 | -2.8% | -0.2% | -5.8%
CC(C)c1ccc2occ(CC(=O)Nc3cccc(C(F)(F)F)c3)c2c1 | -11.6% | ? | 2.2%[46.1 µM]
NCCc1ccc(S(=O)(=O)F)cc1 | -17.2% | ? | -1.0%
